TAR Tat displ: HIV-1 TAR-Tat binding disruption. HIV-1 TAR RNA, Tat peptide displacement FRET; stronger effect = higher value. z-score (concentration not given with the values). 100,000 tested, 0.6% active. AID 1259389;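 also: score is relative to mean and SD of negative controls; some compounds called inactive have numbers as strong as hits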
CDC25B-CDK2 inh: human CDC25B-CDK2/CyclinA binding inhibition. HTRF CDC25B-CDK2/CyclinA binding, anti-His/anti-Flag; stronger effect = higher value. z-score (test concentration not listed). 94,000 tested, 0.72% active. AID 1259370;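 also: score is relative to mean and SD of negative controls; strong numbers were not always called active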
An asterisk follows results filed as active; . = no result given.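 The calls were made as follows: active = z-score from 3 up in half or more of its runs; inactive = the rest.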

SMILES	TAR Tat displ	CDC25B-CDK2 inh
COc1ccc(-c2noc(-c3cc(OC)cc(OC)c3)n2)cc1	-0.03	-0.23
O=C1OCc2ccc(NS(=O)(=O)c3ccccc3)cc21	.	0.36
CC(Sc1c2c(nc3ccc(Cl)cc13)CCCC2)C(=O)NCc1ccco1 (centres undefined)	-0.71	1.9
Cc1cccnc1Nc1nc(-c2ccccc2)cs1	0.06	0.27
Cc1sc(N)c(C(=O)c2cccs2)c1C	.	0.57
Cc1cc(S(=O)(=O)N2CCc3cc4cccc(C)c4nc32)ccc1F	-1.1	0.04
CC1=NS(=O)(=O)c2cc(C(=O)NC(C)(C)C)ccc2N1CC(C)C	1.8	.
O=C(NCCc1ccccc1)NCc1cccn1Cc1ccccc1	-0.49	.
CCOC(=O)c1noc2ncnc(N3CCN(C(=O)c4ccco4)CC3)c12	-1	.
Cc1cc(-c2ccc(C)c(S(=O)(=O)NCCC(C)N3CCOCC3)c2)on1 (centres undefined)	0.84	.
CCn1c(-c2ccc(OC)c(OC)c2)n[nH]c1=S	.	-1.4
Cc1ccc(NS(=O)(=O)c2ccc3[nH]c4c(c3c2)CCCCC4)cc1	2	.
CN1c2ccsc2C(=O)/C(=C\N=S(C)(=O)c2ccc(Cl)cc2)S1(=O)=O (centres undefined)	.	-1.7
O=S(=O)(c1ccc(-c2cnco2)cc1)N1CCCC1c1ccc(F)cc1 (centres undefined)	.	0.11
Cc1ccc(C2CC(=O)Nc3c2c(C)nn3-c2nncc(-c3ccccc3)n2)cc1C (centres undefined)	0.33	.
Cn1c(NCc2ccccn2)nc2c1c(=O)n(Cc1cccc(Br)c1)c(=O)n2C	.	-2
Cc1nn(-c2ccc(N3CCOCC3)nn2)c(C)c1CCC(=O)NCc1ccco1	-1.4	.
Cc1ccn2c(=O)c(C(=O)NCCC3=CCCCC3)c(O)nc2c1	-0.61	-0.83
CCOc1ccc(/C=C/c2nc(C#N)c(N3CCN(CC)CC3)o2)cc1	-1.1	-1.4
CCN(CC)C(=O)c1oc2ccccc2c1NC(=O)c1ccc2c(c1)OCO2	7*	.
O=C(Oc1ccc(Cl)cc1Cl)C1=Cc2cc(Cl)ccc2OC1	.	0.1
CC(=O)N1N=C(c2ccccc2OCc2ccc(Br)cc2)OC1c1ccc(C)o1 (centres undefined)	2.7	.
O=c1c(Cc2ccccc2)c(N2CCCCC2)nc2n1CCCS2	-0.55	-0.66
Cc1[nH]nc(-c2ccc(S(=O)(=O)N3CCN(c4ccccn4)CC3)s2)c1C	-3.8	.
COc1ccc(CCNc2nc3cc(OC)c(OC)cc3c3nc(-c4cccnc4)nn23)cc1OC	1.4	-0.16
CC(=O)N1N=C2CC(C)(C)OCC2C1c1ccccc1 (centres undefined)	.	-1.9
Cc1cc2c3c([nH]c2cc1S(=O)(=O)N(C)Cc1ccco1)CCCC3=O	-8.7	.
O/N=C/c1ccc(-c2cccs2)s1	.	-1.5
Cc1ccc2nc(N3CCN(C4CCCCC4)CC3)c3nnnn3c2c1	-3.5	.
CC1CN(C(=O)CCC(=O)N2CCCCC2)c2ccccc2S1 (centres undefined)	1.6	-1.2
Cn1c(=O)c2c(nc3oc(-c4ccc(F)cc4)cn32)n(C)c1=O	.	0.42
CCOC(=O)c1c(N)n(C2CCCC2)c2nc3ccccc3nc12	0.92	-4.6
O=C(c1noc2c1COc1ccccc1-2)N1CCc2ccccc21	2.5	-0.83
CCc1cccc(C)c1NC1=NS(=O)(=O)C(c2ccccc2)=C1C	-1.8	-1.2
COC(=O)c1cc2cc(CC(=O)c3ccc(O)cc3O)ccc2o1	1.9	-0.82
CCCCC(=O)Nc1cc2[nH]c(=O)[nH]c2cc1C	0.7	.
CC1CCCN(c2nnc(Cc3ccncc3)c3ccccc23)C1 (centres undefined)	-0.47	-2
O=C1CCCc2oc3ccc(NS(=O)(=O)c4cc(Cl)ccc4Cl)cc3c21	.	-1.8
O=C(NCCc1ccsc1)c1cc2c(s1)-c1ccccc1S(=O)(=O)C2	0.08	-1
Cc1cccc(-c2nc(SCc3cc(=O)n4nc(C)sc4n3)n[nH]2)c1	-0.46	.
CCCCNC(=O)OCCOc1cc(C(F)(F)F)ccn1	.	0.51
O=C(CSc1nncn2c1cc1sccc12)Nc1ccc(F)c(Cl)c1	1.7	.
COc1cccc(C2=NN(C(C)=O)C(c3cncc(Br)c3)O2)c1OC(C)=O (centres undefined)	0.71	.
CCSc1nc2ccccc2n1CC(N)=O	0.54	-0.69
O=C(CSc1ccc2nnc(-c3ccccc3)n2n1)N1CCCc2ccccc21	.	-1.4
CCOC(=O)c1c(C)oc2nc(C)nc(N3CCCCC3C)c12 (centres undefined)	1.1	.
Nc1nc(NC2CCCCC2)nc(N2CCCC2)c1[N+](=O)[O-]	0.41	.
COc1ccc2occ(CC(=O)Nc3nnc(SC)s3)c2c1	1.2	-3.6
COc1ccccc1C1c2c(-c3ccc(F)cc3)n[nH]c(=O)c2Nc2nnnn21 (centres undefined)	0.14	-0.66
CC(C)(NS(=O)(=O)c1ccc(Oc2ccc(F)cc2)cc1)C(=O)NO	.	-1.1
Cn1c(=O)sn(-c2ccccc2)c1=O	.	-0.43
Fc1ccc(-c2cc(-c3nc(-c4ccc(Cl)cc4)no3)[nH]n2)cc1	0.25	.
Cc1ccc(NC(=O)C2CC3CSCN3C23C(=O)Nc2ccccc23)cc1Cl (centres undefined)	-6.2	.
Nc1nc2c(c(=O)[nH]1)C(c1c(F)cccc1Cl)CC(=O)N2 (centres undefined)	0.61	-0.93
O=C(CS(=O)(=O)c1ccc(C(F)(F)F)cn1)NNC(=O)Nc1cccc(C(F)(F)F)c1	.	-0.95
COc1ccc(N(C)CC(=O)O)c(C(=O)O)c1	.	-0.7
CC(=O)N1CCc2cc(S(=O)(=O)NC(CC(C)C)C(=O)NC3CCCc4ccccc43)ccc21 (centres undefined)	2.1	-0.7
COc1ccc(C2CC(=O)c3cnc(N)nc3C2)cc1OC (centres undefined)	.	-1.6
Cn1c(C(=O)NCCC2=CCCCC2)c(N2CCCC2=O)c2cc(F)ccc21	1.7	.
O=c1ccc(N2CCN(S(=O)(=O)c3cnc[nH]3)CC2)nn1-c1ccc(Cl)cc1	0.32	.

(more compounds)
SMILES	TAR Tat displ	CDC25B-CDK2 inh
Cc1nn(CCCC(=O)Nc2sc3c(c2C#N)CCCCC3)c(C)c1[N+](=O)[O-]	2	-1.4
COc1cccc(-c2n[nH]c3c2C(c2ccc(C(C)C)cc2)NC3=O)c1 (centres undefined)	1.6	-1.2
CC1CC(=O)Nc2cc(S(=O)(=O)N3CCN(c4ccccc4)CC3)ccc2S1 (centres undefined)	1.9	.
Cc1cc(CN2CCN(Cc3ccc4c(c3)OCO4)CC2)cs1	2	.
CN1CCN(CCCn2cnc3c2c(=O)n(C)c(=O)n3C)CC1	.	0.3
CCOC(=O)C1=C(C)Nc2nc(SCc3cccnc3)nn2C1c1ccccc1C (centres undefined)	-1.1	0.29
Cc1csc2nc(CSc3ccccc3NC(=O)C(C)Oc3ccccc3)cc(=O)n12 (centres undefined)	0.2	.
COc1cc(Br)cc(C=NCCSCc2ccccc2Cl)c1O	.	-1.7
Cn1cccc1Cc1nnc(SCC(=O)N2CCN(c3ccccc3)CC2)n1-c1ccc(F)cc1	-1.4	-1.5
CC(C)CC(NC(=O)C1CCC(C)CC1)C(=O)Nc1cccnc1 (centres undefined)	0.68	-1.3
CC(=O)Nc1nc2c(c3c1c(=O)oc1ccccc13)CCCCC2	.	-0.18
CC1CC(C)CN(C(=O)CCS(=O)(=O)c2ccc3c(c2)n(C)c(=O)c(=O)n3C)C1 (centres undefined)	2.6	-2.4
CCOC(=O)N1c2ccccc2NC(=O)CC1C (centres undefined)	-0.84	-1.6
Nc1nc(SCC(=O)c2cc(-c3ccccc3)no2)ncc1C(=O)O	.	0.48
COc1cc2c(=O)c(C(=O)c3ccccc3)cn(Cc3cccc(F)c3)c2cc1OC	0.64	-2.7
Cn1nnnc1SCCCNCc1cc(Br)ccc1OCc1ccccc1F	-0.07	-0.68
Cc1nc2sc3ccccc3n2c(=O)c1S(=O)(=O)Nc1ccc(N2CCOCC2)cc1	2.3	.
COc1ccc(C2C(C(=O)c3cccs3)=C(O)C(=O)N2c2nnc(C)s2)cc1OC (centres undefined)	-8.9	-1.1
COCCNC(=O)CCCc1nnc2n(CC(C)C)c(=O)c3sccc3n12	0.24	.
COCCN1C(=O)c2[nH]nc(-c3c(C)cc(C)cc3O)c2C1c1ccc(F)cc1 (centres undefined)	-0.12	0.83
CC1CCN(c2ccc(NS(=O)(=O)c3ccc(-c4cnc(C5CC5)o4)cc3)cc2)CC1	-0.27	.
Cc1cc(NC(=O)CSc2nc(=O)n(CCN(C)C)c3c2CCC3)no1	1.1	.
COc1ccc(NS(=O)(=O)c2cc3c(cc2Cl)NC(=O)CO3)cc1	0.17	.
Cc1nc(SCc2cc(=O)n3c(C)csc3n2)n[nH]1	-0.16	.
Cc1ccccc1C1CC(=O)Nc2c1c(C)nn2-c1nncc(-c2ccccc2)n1 (centres undefined)	3.1	-0.49
C=CCSc1nc(=O)c2c(n1C)NC(=O)CC2c1ccc(O)c(OCC)c1 (centres undefined)	1.1	-1.2
S=c1nc(-c2cccnc2)[nH][nH]1	.	-1.3
O=C(CCn1c(SCc2ccc(F)cc2)nc2c(sc3ccccc32)c1=O)NCC1CCCO1 (centres undefined)	.	-2.2
COc1ccc(-n2ncc3c2ncn2nc(-c4ccc(OC)c(OC)c4)nc32)cc1	1.8	-0.24
Cc1ccc(/C(O)=C2/C(=O)C(=O)N(CC(C)O)C2c2cccnc2)cc1 (centres undefined)	0	0.25
Cc1nn(CC(=O)N2CCc3ccccc32)c(=O)c2c(-n3cccc3)n(-c3ccc(Cl)cc3)nc12	0.43	.
S=c1[nH]nc(C2OCCc3ccccc32)o1 (centres undefined)	.	-1.4
COc1ccc2cc3c(N)nn(C(=O)c4cc(OC)c(OC)c(OC)c4)c3nc2c1	.	-0.91
O=C(CSc1nc2c(oc3ccccc32)c(=O)n1Cc1ccco1)Nc1ccccc1F	0.7	-3.1
O=C(O)COCC(=O)NCCN1CCNC1=O	.	-2.6
CC(=O)N1CC(C)Sc2ccc(S(=O)(=O)N3CCOCC3)cc21 (centres undefined)	0.9	.
Cc1ccc(S(=O)(=O)NC(=O)NCCNc2nccc(C(F)(F)F)n2)cc1	.	-0.55
Cn1cnnc1SC/C=C/c1ccccc1	.	-0.45
CC(=O)Nc1ccc(S(=O)(=O)[C@H]2CS(=O)(=O)C[C@@H]2NCCc2cccs2)cc1	0.89	-3
O=C(c1cc(-c2ccco2)nc2ccccc12)N1CCN(c2ccc(=O)n(-c3ccc(F)cc3)n2)CC1	-0.39	.
COc1ccccc1C1C(C(=O)OC(C)C)=C(C)NC2=C1C(=O)CCC2 (centres undefined)	0.86	.
CCOC(=O)c1cnc(SC)nc1NC(=O)Nc1ccc(Br)cc1F	3.1	.
CS(=O)(=NS(=O)(=O)c1ccc(-c2ccccn2)s1)c1ccc(Cl)cc1 (centres undefined)	.	1.1
CCOC(=O)c1c(C)nc2c(c1-c1ccc(Br)cc1)C(=O)CC(C)(C)C2	-1.2	-0.93
O=C(NCc1ccco1)Oc1ccccc1	1.6	-0.02
Cc1ccc(-c2n[nH]c3c2C(c2cccnc2)NC3=O)cc1 (centres undefined)	1.3	.
O=C(Nc1ccc2c(c1)OCCO2)C1CCN(c2nnc(-n3cccc3)s2)CC1	0.37	.
CCCc1cc(C2CCCN2C(=O)Cn2nc(C(F)(F)F)c3c2CCCC3)no1 (centres undefined)	1.5	.
COc1ccc(-c2coc3c2c(C)cc2oc(=O)c4c(c23)CCC4)cc1F	.	-2
O=C(COc1ccc(Br)cc1)N(Cc1ccco1)Cc1ccco1	-1.1	0.21
Cc1nn(CCCC(=O)NCCN(C)C)c(=O)c2cc3occc3n12	2.1	-0.65
COc1ccc(-c2noc(CSc3nnc(CCc4ccccc4)n3C)n2)cc1	-0.38	-1.9
O=C1Nc2ccccc2C1Cc1ccc(-c2ccc(Cl)cc2)o1 (centres undefined)	-1.2	-1.4
N/C(=N\O)c1c(Cl)cccc1Cl	.	-3.1
CCOC(=O)c1cncc(C#Cc2ccccc2)c1	.	-2.9

Screens deposited in PubChem BioAssay by Center for Chemical Genomics, University of Michigan.
